# UCH37 inh – human UCH37 deubiquitinating enzyme inhibition | purified proteasome/UCH37, Ub-AMC cleavage fluorescence | inhibition, % (test concentration not listed) | hit rate 0.33% among 330,000 | AID 588478;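 active means mean of two replicates above 20%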;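 further: 0% = compound-free wells with enzyme and 100% = wells lacking proteasome; stock transfer was 100 nL into about 20 µL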
#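 Reagent: Ub-AMC substrate; assay system: Proteasome-associated human UCH37 deubiquitinase; controls: no-proteasome and no-compound wells; read-out: % inhibition of Ub-AMC cleavage fluorescence; timing: 30 min preincubation with enzyme, 25 min cleavage at room temperature; signal: AMC fluorescence from Ub-AMC cleavage, excitation 355 nm, emission 460 nm; buffer or medium: Tris-HCl pH 7.4 plus ovalbumin, ATP-MgCl2, DTT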
# B2AR ag – agonists of human beta-2 adrenergic receptor inducing internalization; Am2.2-beta2AR cells, FAP receptor internalization, flow cytometry; reference of the scale not given here; response, % (test concentration not listed); hit rate 0.43% among 340,000; AID 504454;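 active means response above a set limit, near 3 SD of response in nonfluorescent compounds, cut at about 42% in these data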;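 further: stock transfer was 100 nL into about 11 µL; a reference agonist was the positive control; negative values mostly stem from fluorescent compounds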
# Ecoli rRNA inh – inhibits bacterial ribosomal RNA function over humanized ribosomes; E. coli WT GFP vs humanized-ribosome RFP mutants, fluorescence, 24 h; stronger effect = lower value; DMSO median 0, no signal -100; hit rate 1.6% among 350,000; GFP signal change (wild-type ribosome), % (test concentration not listed); AID 720706;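 active means significant combined selectivity score with lowered wild-type GFP, culture density cut under 30%, mutant RFP and density less affected; inactive means any of these conditions unmet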; further: one replicate is shown; some compounds called inactive have numbers as strong as hits
# FGF22 binding – binders of recombinant human FGF22 by thermal shift; hit rate 1.5% among 340,000; AID 651658; Q9HCT0; SYPRO orange fluorescence; percent of sucrose octasulfate shift, DMSO zero; calls only at 9.99 µM;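 active means melting point raised past a set limit in the mean and every replicate; three in four hits are not shown here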
# Target sequence (Q9HCT0 whole entry, looked up): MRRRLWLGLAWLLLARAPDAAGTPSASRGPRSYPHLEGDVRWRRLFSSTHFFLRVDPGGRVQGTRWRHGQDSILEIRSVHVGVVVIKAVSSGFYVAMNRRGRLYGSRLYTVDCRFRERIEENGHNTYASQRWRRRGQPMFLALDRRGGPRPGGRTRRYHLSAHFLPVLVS
# ALR inh – human ALR oxidase inhibition via reduced H2O2 | hit rate 3.8% among 290,000 | inhibition, % (test concentration not listed) | P55789 | purified ALR, DTT oxidation, H2O2 HRP-luminol luminescence | AID 485317;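 active means mean and each replicate at 75% or more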;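 further: stock transfer was 7.5 nL into about 7.5 µL; 0% = neutral wells and 100% = wells with inactivated enzyme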
# Target sequence (P55789 whole entry, looked up): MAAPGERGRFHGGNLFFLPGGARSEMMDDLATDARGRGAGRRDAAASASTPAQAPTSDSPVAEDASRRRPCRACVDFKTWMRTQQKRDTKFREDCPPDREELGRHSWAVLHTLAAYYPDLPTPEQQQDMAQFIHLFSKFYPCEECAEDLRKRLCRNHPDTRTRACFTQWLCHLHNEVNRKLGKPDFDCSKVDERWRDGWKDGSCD
# HNF4A DNA FP – change in binding of human HNF4 alpha to DNA; HNF4a-FITC DNA binding, fluorescence polarization, 1 h; activity change, % at 10 µM; hit rate 0.3% among 360,000; in the data active means activity change above about 30%, passing the limit was not always enough;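 further: controls were the assay level and a saturating level of protein; the project sought stronger binding though the title names inhibitors; some compounds called inactive have numbers as strong as hits; positive values seem to mean higher polarization but the record does not say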
# Target sequence (P41235 whole entry, looked up): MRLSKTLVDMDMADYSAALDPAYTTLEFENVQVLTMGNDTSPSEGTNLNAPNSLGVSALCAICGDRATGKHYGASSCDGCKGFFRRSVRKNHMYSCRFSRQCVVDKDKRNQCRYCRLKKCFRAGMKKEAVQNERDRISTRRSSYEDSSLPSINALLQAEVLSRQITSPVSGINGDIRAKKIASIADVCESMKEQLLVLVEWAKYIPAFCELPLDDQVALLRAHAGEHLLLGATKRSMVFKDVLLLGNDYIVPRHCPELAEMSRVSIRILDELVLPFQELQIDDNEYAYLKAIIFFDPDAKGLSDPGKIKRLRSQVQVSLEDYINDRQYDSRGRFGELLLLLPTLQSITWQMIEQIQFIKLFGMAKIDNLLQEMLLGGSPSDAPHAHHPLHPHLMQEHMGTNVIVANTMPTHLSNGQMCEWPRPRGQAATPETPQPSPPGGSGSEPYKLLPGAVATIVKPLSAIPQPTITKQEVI
# Ecoli growth – inhibitors of Escherichia coli growth; OD600 absorbance (test concentration not listed); hit rate 0.21% among 330,000; AID 1053175; OD600, 23 h; stronger effect = lower value;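 active means OD600 absorbance below the run mean of sample wells minus 3.6 SD, in any replicate, cut at about 0.56 in these data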;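 further: stock transfer was 300 nL into about 60 µL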
# Ecoli rRNA inh OD600 – second read-out of Ecoli rRNA inh, no call of its own (marks repeat the call); OD600 change, %; measured here: OD600 growth;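 optical density of the mix in the first replicate; 0 = DMSO median and -100 = no signal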
# Ecoli rRNA inh RFP – also measured in Ecoli rRNA inh; calls as there; RFP signal change, %; measured here: RFP humanized mutant strains;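 first replicate; 0 = DMSO median and -100 = no signal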
# An asterisk follows results filed as active; i = inactive; nt = no result given; + = active, no number.
SMILES,UCH37 inh,B2AR ag,Ecoli rRNA inh,Ecoli rRNA inh OD600,Ecoli rRNA inh RFP,FGF22 binding,ALR inh,HNF4A DNA FP,Ecoli growth
Cc1c(C)n2c(SCC(=O)N3CCCCCC3)nnc2[nH]c1=O,5.1,4,9,19,-2.6,i,-1,-0.9,0.66
O=C(c1cccc(NS(=O)(=O)c2ccc(F)cc2)c1)N1CCN(c2ccccc2)CC1,2.1,0,-14,-23,3.2,i,nt,2.2,0.66
C[C@H]1CCC(=O)N([C@H](CN=[N+]=[N-])Cc2ccccc2)CC1,1.2,0,6,14,-5.4,i,-1,-3.5,nt
COc1ccccc1NC(=O)C(C)OC(=O)Cn1cnc2c1c(=O)n(C)c(=O)n2C (stereo not drawn),0.0,8,5,7,-0.8,i,3,-1.3,0.68
O=C(N/N=C/c1ccc(O)c(O)c1)N/N=C/c1ccc(O)c(O)c1,nt,5,6,6,-1.8,+,100*,-21,nt
COc1cccc(C(=O)O/N=C2\CCS(=O)(=O)c3sccc32)c1,nt,8,16,12,-0.7,i,nt,7.7,nt
COc1ccc(N(CC(=O)NCc2ccccc2OC)S(=O)(=O)c2c(C)nn(C)c2C)cc1,1.9,-21,-3,-2,-0.1,i,0,1.3,0.8
CN(C(=O)c1ccc(NC(=O)Cc2cccc(NC(=O)C3CCCN(C(=O)C4CCCCC4)C3)c2)cc1)C1CCCC1 (stereo not drawn),-0.8,2,-5,-5,17,i,-2,-1.7,0.71
COc1cccc(C2NC(=O)c3ccccc3O2)c1OCc1ccccc1F (stereo not drawn),-0.3,-5,3,-3,-0.7,i,0,2.6,0.71
Cc1ccc(S(=O)(=O)N2CCC(C(=O)N3CCc4ccccc43)CC2)cc1,-1.2,-2,-1,7,-0.6,i,nt,5.1,0.74
CC(C)NC(=O)C(=O)Nc1ccc2c(c1)N(S(=O)(=O)c1cccs1)CCC2,6.1,9,-18*,-13*,5.7*,i,nt,1.2,0.69
OC(COc1ccc(Br)cc1)CN1CCOCC1 (stereo not drawn),0.4,-1,nt,nt,nt,nt,-4,2.0,0.68
CCOC(=O)c1oc2ccc(OC)cc2c1NC(=O)CN1CCN(C)CC1,-90,-2,nt,nt,nt,nt,-12,-4.8,0.67
CCN(CC(=O)Nc1ccccc1C(F)(F)F)C(=O)c1ccccc1Cc1ccccc1,6.0,-5,-8,-9,-1.5,i,-33,-0.1,0.63
O=C1COc2ccc(C(=O)COC(=O)c3c(F)cccc3Cl)cc2N1,3.9,-6,5,7,-0.7,i,nt,-3.2,0.68
COc1ccc(N)cc1NC(=O)CN1CCCC1,1.2,-4,9,8,0.6,i,97*,1.6,0.66
O=C(c1cc2nc(-c3ccco3)cc(C(F)(F)F)n2n1)N1CCc2ccccc2C1,nt,-8,nt,nt,nt,nt,nt,2.9,0.71
Cc1ccc(OCc2nc(-c3ccccc3)no2)c(C)c1,-4.0,1,nt,nt,nt,nt,-3,-4.1,0.73
CC(=O)c1cc(Cl)ccc1OCC(=O)NC1CCCC1,4.6,-8,4,0,-0.1,i,nt,0.4,0.68
COc1cc(/C=N/N=C2/NC(=O)C(Cc3ccc(F)cc3)S2)ccc1O (stereo not drawn),nt,5,-3,-6,-2.9,i,26,1.8,nt

# An excerpt from above with just FGF22 binding, Ecoli rRNA inh RFP and B2AR ag:
Molecule,FGF22 binding,Ecoli rRNA inh RFP,B2AR ag
COc1ccc(N)cc1NC(=O)CN1CCCC1,i,0.6,-4
O=C(c1cc2nc(-c3ccco3)cc(C(F)(F)F)n2n1)N1CCc2ccccc2C1,nt,nt,-8
Cc1ccc(OCc2nc(-c3ccccc3)no2)c(C)c1,nt,nt,1
CC(=O)c1cc(Cl)ccc1OCC(=O)NC1CCCC1,i,-0.1,-8

# FGF22 binding: what is marked active above.
SMILES,UCH37 inh,B2AR ag,Ecoli rRNA inh,Ecoli rRNA inh OD600,Ecoli rRNA inh RFP,FGF22 binding,ALR inh,HNF4A DNA FP,Ecoli growth
O=C(N/N=C/c1ccc(O)c(O)c1)N/N=C/c1ccc(O)c(O)c1,nt,5,6,6,-1.8,+,100*,-21,nt

# Other structures follow.
SMILES,UCH37 inh,B2AR ag,Ecoli rRNA inh,Ecoli rRNA inh OD600,Ecoli rRNA inh RFP,FGF22 binding,ALR inh,HNF4A DNA FP,Ecoli growth
COC(=O)c1c(C)[nH]c(O)c1C=Nc1ccc(C#N)cc1,8.2,-3,15,0,1.8,i,-17,25,0.69
CCc1nnc(SCC(=O)Nc2ccc3c(c2)OCO3)n1CC,1.7,3,6,7,-0.6,i,16,-4.8,0.69
COc1ccc(NC(=O)CSc2nnc(Cn3nnc4ccccc43)n2C)cc1,-3.2,0,nt,nt,nt,nt,nt,0.8,0.7
FC(F)Oc1ccc(C2=Nn3c(nnc3-c3ccccc3Cl)SC2)cc1OCC1CC1,2.2,0,4,9,-1.5,i,-2,3.5,0.81
CCCS(=O)(=O)n1nc(-c2ccc(C)cc2)cc1N,1.9,2,7,11,1.8,i,-1,1.7,0.69
CCOC(=O)C1=C(C)NC2=C(C(=O)c3ccccc32)C1c1ccc(O)cc1 (stereo not drawn),8.1,0,nt,nt,nt,nt,0,2.5,0.71
CCOC(=O)C(=O)c1cn(C2OCC(OC(C)=O)C(OC(C)=O)C2OC(C)=O)c2ccccc12 (stereo not drawn),3.5,8,nt,nt,nt,nt,-4,-1.9,nt
COc1ccc(CC(=O)Nc2c3c(nn2-c2cccc(C)c2C)CS(=O)C3)cc1 (stereo not drawn),0.8,-3,nt,nt,nt,nt,-10,2.3,0.66
CCN(CC)C(NC(=O)c1ccccc1)C(=O)c1ccccc1 (stereo not drawn),3.1,23,nt,nt,nt,nt,0,11,0.79
O=C(/C=C/c1ccc2c(c1)OCO2)Nc1nc(-c2ccccc2)cs1,-40,5,nt,nt,nt,nt,2,2.5,0.75
Fc1ccc(-c2nc3c(Cl)cc(C(F)(F)F)cn3c2Cc2ccsc2)cc1,nt,nt,-17*,-4.5*,6.3*,i,nt,3.1,nt
Cc1cccc(N2CCN(C(=O)CN3C(=O)NC(C)(C)C3=O)CC2)c1C,0.8,-2,-18,-13,-1.6,i,-4,2.8,0.72
COc1ccc(-n2nnc3c(SCC(=O)NCc4ccco4)ncnc32)cc1,2.6,6,nt,nt,nt,nt,nt,-0.4,0.7
O=C1NC(c2ccc3c(c2)OCO3)Oc2ccccc21 (stereo not drawn),1.2,3,nt,nt,nt,nt,2,1.2,0.63
COc1ccc(NC(=S)N2CCC(NC(=O)c3ccco3)CC2)cc1,0.9,2,nt,nt,nt,i,-69,-0.1,0.64
Cc1cccc(OCCCC(=O)NC(C)C)c1,0.9,-2,nt,nt,nt,nt,-11,3.1,0.76
Cc1ccc2c(c1)/C(=C/c1ccco1)C(=O)N2,8.3,-3,-28,-30,-2.4,i,51,1.3,0.66
CCC(CC)C(=O)N1CC(=O)Nc2ccc(F)cc2C1c1ccc(F)cc1 (stereo not drawn),3.3,-1,5,1,-0.3,i,-3,-3.4,0.78
COc1ccc(CCNc2ncnc3c2c(C)c(C)n3CCO)cc1OC,3.0,-2,-11,-4,-1.4,i,9,-0.8,0.66
CCCn1c(-c2ccc(OC)cc2)nc2ccccc21,-1.1,-7,nt,nt,nt,nt,-20,1.1,0.71
O=C1ON=C(c2ccc(Cl)c([N+](=O)[O-])c2)/C1=C/c1cccc([N+](=O)[O-])c1O,4.2,-3,9,17,-2.7,i,-1,2.0,0.64
CC(C)(C)c1ccc(C(=O)NCc2ccco2)cc1,2.2,-3,-14,-20,-2.9,i,1,3.4,0.65
O=C(NCC(O)c1nc2ccccc2[nH]1)c1cc([N+](=O)[O-])ccc1F (stereo not drawn),nt,nt,-10,-9,-6.8,i,nt,0.2,nt
C=CCC(C)(NCc1ccccc1)c1ccco1 (stereo not drawn),3.7,-1,nt,nt,nt,nt,33,-0.6,0.73
Cc1ccc(S(=O)(=O)N/N=C\c2ccc3c(c2)OCO3)c(C)c1,nt,3,4,-18,-0.9,i,16,2.3,nt
COc1cccc(-c2ccc(C#N)c(OC(=O)c3c(Cl)cccc3Cl)n2)c1,-313,8,nt,nt,nt,nt,-5,1.6,0.72
O=C(NC1CCCN(Cc2ccc(Cl)cc2)C1)c1ccccc1C(F)(F)F (stereo not drawn),4.1,0,0,-4,0.8,i,nt,-3.1,0.71
C[C@@H](NC(=O)c1[nH]cnc1C(=O)Nc1nccs1)c1ccccc1,-0.6,0,7,8,-3.4,i,-12,0.6,nt
Fc1ccccc1N1CCN(CCCc2ccccc2)CC1,1.4,15,-5,-5,0.0,i,6,0.0,0.66
COc1cc(C(=O)C(=O)N2CCN(c3ccccc3)CC2)cc(OC)c1OC,nt,nt,-5,-9,6.6,i,nt,1.8,nt
Cc1ccc(NC(CNS(=O)(=O)c2ccc(Cl)cc2)c2ccccc2)cc1 (stereo not drawn),2.2,-1,nt,nt,nt,nt,11,3.3,0.73
COCc1ccc(C(=O)N2CCCC(N3CCN(c4cccc(Cl)c4)CC3)C2)s1 (stereo not drawn),nt,nt,-4,-7,-0.5,i,nt,-3.1,nt
CCN1C(c2ccccc2)C(C)C(=O)C(C)C1c1ccccc1 (stereo not drawn),1.7,6,nt,nt,nt,nt,-14,-2.0,0.7
Cc1cc(NC(=O)C(C)Oc2ccc(C(C)(C)C)cc2)no1 (stereo not drawn),2.4,9,-2,-15,0.9,i,0,-0.8,0.72
COc1ccc(NC(=O)Cc2ccc(Cl)cc2Cl)cn1,0.3,-1,6,2,5.6,i,nt,1.6,0.7
Cc1ccc(C(=O)c2ccccc2C(=O)OCC(=O)NCC2CCCO2)cc1 (stereo not drawn),1.2,-7,-4,-7,-0.9,i,0,4.0,0.69
CCCN(C#N)c1nc(NCC)nc(NC(C)C)n1,0.5,-10,nt,nt,nt,nt,9,1.1,0.7
O=C(CSc1ccc2nnc(-c3ccc(Cl)cc3)n2n1)N1CCc2ccccc21,-3.5,2,11,12,0.8,i,-1,-1.1,0.74
CCOC(=O)COc1ccc(S(=O)(=O)NCCC2=CCCCC2)cc1,13,13,nt,nt,nt,nt,-9,1.6,0.65
COc1cccc(NC(=O)CN(C)C(=O)c2cc(-c3ccc(C)o3)nc3ccccc23)c1,-370,15,nt,nt,nt,i,-1,3.7,0.7

# The closing three entries of the part before come first, to join the parts:
SMILES,UCH37 inh,B2AR ag,Ecoli rRNA inh,Ecoli rRNA inh OD600,Ecoli rRNA inh RFP,FGF22 binding,ALR inh,HNF4A DNA FP,Ecoli growth
O=C(CSc1ccc2nnc(-c3ccc(Cl)cc3)n2n1)N1CCc2ccccc21,-3.5,2,11,12,0.8,i,-1,-1.1,0.74
CCOC(=O)COc1ccc(S(=O)(=O)NCCC2=CCCCC2)cc1,13,13,nt,nt,nt,nt,-9,1.6,0.65
COc1cccc(NC(=O)CN(C)C(=O)c2cc(-c3ccc(C)o3)nc3ccccc23)c1,-370,15,nt,nt,nt,i,-1,3.7,0.7
Cc1c(C(=O)O)sc(=S)n1-c1ccc(Cl)cc1,4.4,4,nt,nt,nt,nt,-6,0.1,0.69
NC(=O)C(C1=CCCCC1)c1ccccc1 (stereo not drawn),1.5,4,8,1,1.2,nt,nt,-5.4,0.7
Cc1cc(S(=O)(=O)N(Cc2ccc(C(C)C)cc2)CC2CCCO2)ccc1-n1cnnn1 (stereo not drawn),0.3,-11,-21*,-17*,1.6*,nt,-3,0.5,0.73
Cc1nnc(SCCn2c(Br)nc3c2c(=O)[nH]c(=O)n3C)s1,8.2,-6,nt,nt,nt,nt,-3,-4.2,0.67

# Screening results as filed in PubChem BioAssay.

# Not all compounds are listed; count on the stated rates, not on these rows.
